Assay outcomes (PubChem BioAssay)
Beta2AR agonist: activates human beta-2 adrenergic receptor causing internalization. 340,000 tested, 0.43% active. Am2.2-beta2AR cells, FAP receptor internalization, flow cytometry; reference of the scale not given here. AID 504454. P07550. response, % (concentration not given with the values);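 active means response above a set limit, near 3 SD of response in nonfluorescent compounds, cut at about 42% in these data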;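 further: stock transfer was 100 nL into about 11 µL; a reference agonist was the positive control; negative values mostly stem from fluorescent compounds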
Target sequence (P07550 whole entry, looked up): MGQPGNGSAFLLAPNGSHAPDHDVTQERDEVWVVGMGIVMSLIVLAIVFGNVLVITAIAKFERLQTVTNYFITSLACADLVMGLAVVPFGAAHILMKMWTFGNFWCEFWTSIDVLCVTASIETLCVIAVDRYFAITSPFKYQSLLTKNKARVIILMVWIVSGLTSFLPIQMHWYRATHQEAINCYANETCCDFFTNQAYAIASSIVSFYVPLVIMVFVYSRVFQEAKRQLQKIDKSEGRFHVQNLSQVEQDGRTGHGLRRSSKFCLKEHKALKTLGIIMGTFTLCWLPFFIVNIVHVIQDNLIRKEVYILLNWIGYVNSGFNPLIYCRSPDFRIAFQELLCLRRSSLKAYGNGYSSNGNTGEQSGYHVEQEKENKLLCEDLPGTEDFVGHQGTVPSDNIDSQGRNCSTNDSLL
ALR H2O2 inh: blocks human ALR sulfhydryl oxidase activity; AID 485317; inhibition, % (test concentration not listed); P55789; purified ALR, DTT oxidation, H2O2 HRP-luminol luminescence; 290,000 tested, 3.8% active;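 active means mean and each replicate at 75% or more; inconclusive means only one of the two met; inactive means neither met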;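 further: stock transfer was 7.5 nL into about 7.5 µL; 0% = neutral wells and 100% = wells with inactivated enzyme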
Target sequence (P55789 whole entry, looked up): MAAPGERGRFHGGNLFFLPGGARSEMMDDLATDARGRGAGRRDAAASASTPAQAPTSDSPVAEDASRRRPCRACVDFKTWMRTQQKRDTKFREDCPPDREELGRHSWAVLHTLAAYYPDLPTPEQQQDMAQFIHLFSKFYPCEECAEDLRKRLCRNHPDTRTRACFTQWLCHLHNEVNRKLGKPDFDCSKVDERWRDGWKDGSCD
Beta cell apopt: blocks beta cell apoptosis; INS-1E cytokine-induced death, ATP luminescence, 48 h; percent of positive-control rescue, neutral wells zero; protection from apoptosis, % (concentration not given with the values); 300,000 tested, 0.8% active; AID 435005;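 active means all replicates at 75% or more, or half of them and the mean; inconclusive means half reach 75% but not the mean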;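 further: 0% = cytokine-treated negative control wells and 100% = positive control rescue; higher means more ATP so stronger rescue from cytokine killing; wells of about 40 µL received 100 nL stock; the first replicate is given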
Bfl-1 A1 inh: inhibitors of the anti-apoptotic protein A1, read as caspase activation. 330,000 tested, 0.066% active. AID 2462. caspase activation, % (concentration not given with the values). MEF A1-2A-BIM cells, Caspase-Glo 3/7 luminescence, 3 h; percent of clofoctol response, vehicle zero;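 active means over half of replicate activation scores above 10%, or exactly half above 10 with the replicate mean above 10; inconclusive means replicate mean below 10 yet half the replicates above 10; inactive means over half of replicates below 10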;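 further: wells of about 30 µL received 50 nL stock; many hits fall short of the cut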
Calb FLC: affects C. albicans growth with fluconazole; C. albicans CaCi-2 (fluconazole-resistant clinical isolate) + fluconazole, Alamar Blue growth, 48 h; growth inhibition, % (test concentration not listed); 300,000 tested, 0.57% active; AID 1979;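 active means most replicates above 75%; inconclusive means exactly half above 75%; inactive means most below 75%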;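 further: all wells also contain fluconazole at 8 µg/ml as a sub-toxic cotreatment; 0% = median of DMSO wells and 100% = median of geldanamycin control wells; wells of about 8 µL received 7.5 nL stock; the first replicate is given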
Ecoli rRNA inh: inhibits bacterial ribosomal RNA function over humanized ribosomes; 350,000 tested, 1.6% active; AID 720706; E. coli WT GFP vs humanized-ribosome RFP mutants, fluorescence, 24 h; stronger effect = lower value; DMSO median 0, no signal -100; GFP signal change (wild-type ribosome), % (test concentration not listed);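 active means significant combined selectivity score with lowered wild-type GFP, culture density cut under 30%, mutant RFP and density less affected; inactive means any of these conditions unmet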; further: one replicate is shown; some compounds called inactive have numbers as strong as hits
T cruzi repl: T. cruzi replication inhibition. 300,000 tested, 1.4% active. inhibition, % (no concentration beside the values). T. cruzi beta-gal in NIH3T3, luminescence, 90 h;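 active means mean inhibition across valid replicates above about 55%, limit read from the data; inconclusive means mean below that limit but half or more replicates reach it; inactive means mean below it, under half of replicates reach it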;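 further: signal also drops with host cell toxicity which is not excluded here; 0% = plate median of DMSO wells and 100% = zero luminescence signal; higher percent means less beta-gal luminescence so fewer parasites; stock transfer was 50 nL into about 50 µL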
LANA-H2B inh: blocks KSHV LANA binding to histone H2A/H2B | AID 2629 | inhibition, % (test concentration not listed) | 320,000 tested, 0.6% active | cell-free LANA-H2A/H2B peptide, fluorescence polarization | Q9QR71; in the data active means inhibition mostly above about 10%, no sharp cut-off; inactive means mostly below about 6.7%;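 further: stock transfer was 7.5 nL into about 10 µL; 0% = median of vehicle wells and 100% = median of positive control wells; one replicate is shown; the record names a cut of 25% in any replicate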
Ecoli rRNA inh OD600: further read-out of Ecoli rRNA inh, marked with its call; OD600 change, %; measured here: OD600 growth;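 optical density of the mix in the first replicate; 0 = DMSO median and -100 = no signal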
Ecoli rRNA inh RFP: second read-out of Ecoli rRNA inh, no call of its own (marks repeat the call); RFP signal change, %; measured here: RFP humanized mutant strains;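 first replicate; 0 = DMSO median and -100 = no signal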
Active calls of the source: *; ? = inconclusive; / = not tested or not shown. The list is partial (hit frequency here may not be typical).

Sequence of screens: Ecoli rRNA inh	ALR H2O2 inh	Calb FLC	LANA-H2B inh	T cruzi repl	Bfl-1 A1 inh	Beta2AR agonist	Ecoli rRNA inh RFP	Ecoli rRNA inh OD600	Beta cell apopt
> CCC1=C(OC(=O)N(CC)CC)N2C(=O)OC(=NCC(=O)OC)[C@]2(C)[C@H]2C1=CC[C@H]1C(=O)N(C)C(=O)[C@H]12
  15	-14	-3	8.1	-9	0.8	-3	1.9	3	1
> Cc1ccccc1-c1nc(CS(=O)CC(=O)NCCN2CCOCC2)c(C)o1 (centres undefined)
  -3	99*	1	4.1	-1	0.0	-4	-0.4	-2	-6
> CC1CCN(C(=O)CN2C(=O)NC(C)(c3ccc4ccccc4c3)C2=O)CC1 (centres undefined)
  /	26	/	-3.8	/	0.8	-1	/	/	-2
> Cc1ccn2c(CN3CCOCC3)c(-c3ccccc3)nc2c1
  /	-11	-8	-3.1	16	0.4	5	/	/	-2
> COC(=O)CCC(=O)c1oc2ccccc2c1N
  /	10	-26	4.2	2	-0.5	2	/	/	-2
> COCCNC(=O)CCc1c(C)nc2c(-c3ccc(F)cc3)c(C)nn2c1C
  -8	/	0	-2.7	-9	0.7	6	-5.9	1	2
> COCCNc1nnc(SCC(=O)NC(=O)c2ccccc2OC)s1
  18	0	3	-2.4	13	0.2	5	2.3	17	-2
> O=C1c2ccccc2C(Nc2ccc(F)c(Cl)c2)N1Cc1ccco1 (centres undefined)
  -2	3	-3	-5.5	8	1.1	6	1.0	-15	-2
> N#Cc1ccccc1OCC(=O)Nc1ccc2c(c1)OCCCO2
  -5	/	-15	-3.2	/	-1.2	-3	-0.4	-12	7
> COc1ccc(S(=O)(=O)N2CCOC2CNC(=O)C(=O)NCC(C)C)cc1 (centres undefined)
  4	-4	-4	2.4	-13	?	-1	-1.3	1	-6
> O=S(=O)(Nc1ccc2cn[nH]c2c1)c1ccccc1
  -10	-81	-4	-1.1	-6	1.3	4	3.4	-11	-4
> CN(C)c1cccc(C(=O)NCc2ccccc2)c1
  5	96*	-7	-2.6	-16	-0.5	0	-2.0	11	-2
> Cc1nn(-c2ccccc2)c(N)c1Sc1ccccc1[N+](=O)[O-]
  -37*	-1	3	2.3	-2	-0.5	10	-11*	-17*	-2
> CCOc1ccc(-c2c[n+]3c(n2-c2ccccc2)CCCCC3)cc1
  -39*	/	?	-2.9	66*	-1.8	-10	6.5*	-30*	98*
> O=[N+]([O-])c1ccc(Sc2n[nH]c(-c3ccco3)n2)nc1
  10	-5	8	1.5	-16	0.7	-5	-1.2	7	-4
> Cc1ccc2oc(=O)cc(CN3CCOCC3)c2c1
  /	1	-13	-4.5	0	1.0	-3	/	/	-2
> CC(=O)c1cccc(NC(=O)C2C3C=CC(C3)C2C(=O)O)c1 (centres undefined)
  13	-4	-25	-5.9	-13	-2.1	6	-0.8	0	-3
> Cc1ccc(C(=O)c2cc3ccccc3o2)cc1
  /	1	-21	2.1	8	-5.6	-3	/	/	-3
> CN(C)S(=O)(=O)c1ccc(Cl)c(C(=O)OCC(=O)c2ccco2)c1
  5	0	/	-5.7	/	0.3	0	-1.4	8	-3
> CCN(CC)CCCNC(=S)N1CCC(c2nc3ccccc3[nH]2)CC1
  20	/	-3	-1.0	-10	?	0	0.8	10	2
> CCN1C(=O)C(CC(=O)Nc2ccc(OC)cc2)N(CCc2ccc(F)cc2)C1=S (centres undefined)
  -23	-58	7	-11	44	-0.6	0	1.5	-26	15
> CN1CCN(c2ccccc2NC(=O)c2sc3ccccc3c2Cl)CC1
  3	-1	-5	0.7	42	-0.7	-14	1.2	-13	3
> COc1ccc(S(=O)(=O)Nc2cccc(-c3ccc4nncn4n3)c2)c(OC)c1
  0	-5	1	3.0	6	0.9	11	-0.3	0	2
> O=c1o[nH]c(-c2ccccc2)c1N=Nc1c(F)cccc1Cl
  2	1	0	-2.2	2	0.5	9	-1.2	0	13
> COc1ccc(CCN(Cc2ccccn2)C(=S)Nc2ccccc2C)cc1OC
  -10	-6	10	0.9	-13	1.5	-5	1.9	-3	-5
> O=C(c1ccco1)N1CCCN(Cc2nc(-c3ccc4c(c3)OCO4)no2)CC1
  -3	-4	7	-11	7	3.2	-10	3.3	-3	-1
> O=C(Nc1cccc(Cl)c1)c1nc[nH]c1C(=O)NCCN(CCNC(=O)c1[nH]cnc1C(=O)Nc1cccc(Cl)c1)CCNC(=O)c1[nH]cnc1C(=O)Nc1cccc(Cl)c1
  3	10	/	3.6	/	-0.3	0	8.4	-3	3
> CCOc1ccc(N(CC(=O)NCCc2ccc(Cl)cc2)S(=O)(=O)c2c(C)[nH]c(=O)[nH]c2=O)cc1
  12	-7	-8	10	6	0.8	-7	1.3	10	-4
> O=C(CN(C(=O)CSc1nnc(COc2ccccc2)o1)c1ccc(F)cc1)NC1CCCC1
  /	-8	3	0.8	16	-0.3	-1	/	/	2
> O=C1CN(c2nc(-c3cccnc3)nc3sc4c(c23)CCCC4)CCN1
  13	7	4	-4.3	3	-0.5	6	9.7	-1	4
> O=C(CSc1cc(Cl)ccc1Cl)NC1CCCc2ccccc21 (centres undefined)
  16	-11	-3	-3.0	5	0.4	2	-2.6	17	4
> CN1CCN(CCCNC(=O)c2ccc3c(c2)N(Cc2ccc(F)cc2)CCS3)CC1
  3	99*	-1	-1.2	20	0.1	12	-1.6	2	1
> O=C(c1ccco1)N1CCN(C(=S)Nc2ccc(Br)cc2Cl)CC1
  -44*	-20	2	-15	15	-1.2	0	-14*	-27*	2
> Cc1ccc(CN=C(Nc2ccccc2)NC2CCCCC2)cc1
  6	-6	-20	1.7	52	1.6	2	0.8	-7	-3
> Cc1cc(C)n(C(C)CNS(=O)(=O)c2ccc(C)c(C)c2)n1 (centres undefined)
  8	/	1	-2.1	1	0.4	0	3.8	8	-6
> CC(Sc1nc2sc3c(c2c(=O)n1-c1ccccc1)CCCC3)C(=O)O (centres undefined)
  -2	1	-2	2.0	0	0.3	-4	7.1	-12	0
> N#Cc1cccc(C(=O)OCC(=O)c2ccc3c(c2)NC(=O)CO3)c1
  0	0	0	-1.8	1	1.1	3	-1.2	10	0
> Cc1ccc(C)c(N2CCN(C(=O)CCn3c(=S)[nH]c4cc5c(cc4c3=O)OCO5)CC2)c1
  /	26	20	-0.6	?	0.3	-3	/	/	-3
> CN(C(=O)c1ccc(NC(=O)C2CCN(C(=O)OC(C)(C)C)CC2)cc1)C1CCC1
  5	1	/	0.4	/	0.6	-6	4.6	23	0
> O=C(NC1CCCc2c1cnn2-c1ccc(F)cc1F)c1csnn1 (centres undefined)
  5	-7	-2	-9.0	-19	1.7	2	2.9	6	-5
> CC1CCCN(C(=O)C2(NC(=O)Nc3cccc(F)c3)CCCCC2)C1 (centres undefined)
  2	-5	-11	-2.3	-10	-0.9	1	-1.4	1	7
> O=C(O)Cc1nc(-c2cccnc2)sc1-c1ccc(Br)cc1
  -8	/	-1	4.1	-8	1.3	12	-13	-1	0
> O=C(CCc1ccccc1O)N/N=C/c1ccc(Sc2cccc3cccnc23)o1
  /	8	29	1.7	45	0.3	1	/	/	21
> O=C(COC(=O)Cc1c[nH]c2ccccc12)Nc1cccc2ccccc12
  /	39	7	14*	-12	0.0	-2	/	/	-6
> CC(=O)Nc1sc(N/N=C\c2ccccc2F)nc1-c1cccs1
  -8	17	-5	-3.1	-24	1.1	2	-4.5	-5	-4
> c1csc(-c2cn3ccc4ccccc4c3n2)c1
  -39	-17	41	8.3	-6	-0.2	-16	-8.3	-32	6
> Cc1cccc(C(=O)N[C@H](C(=O)Nc2ccc(C)c(S(=O)(=O)N(C)C)c2)C(C)C)c1
  7	-1	2	-0.2	2	-0.2	7	-8.5	5	3
> COc1ccc(N2CCN(C(=O)CSc3nnc(-c4cccnc4)n3-c3ccc(F)cc3)CC2)cc1
  /	/	18	-0.2	-4	0.5	2	/	/	0
> CC(C)C(=O)Nc1ccc2oc(=O)ccc2c1
  1	0	0	-1.9	-3	1.5	6	0.4	-10	-5
> CSc1ccccc1C(=O)Nc1ccc(C)cc1C
  3	-5	9	3.8	6	0.7	0	2.1	8	-10
> O=C1CC(N2CCOCC2)C(=O)N1c1ccc2c(c1)OCO2 (centres undefined)
  /	2	-14	-4.0	-8	1.7	-6	/	/	-9
> N#Cc1cc(C#N)c(N2CCN(c3cccc(Cl)n3)CC2)nc1N
  /	-4	?	-3.9	-1	0.6	-11	/	/	6
> COc1ccc(C2=NN(CN3C(=O)C(=O)c4ccccc43)C(c3ccc(OC)cc3)C2)cc1 (centres undefined)
  -20	-2	-18	0.7	-10	-4.8	16	-6.0	-22	-6
> Cc1cccc(NC(=O)COc2coc(CN3CCN(c4ccccc4)CC3)cc2=O)c1
  4	12	-4	5.1	-10	-1.1	5	1.0	14	/
> N/C(=N\N=C\c1ccnc2ccccc12)SC1CC(=O)N(c2ccc(Br)cc2)C1=O (centres undefined)
  /	-25	-10	-3.1	4	-1.3	4	/	/	0
> CCOc1ccc2ccccc2c1/C=N/NC(=O)c1ccncc1
  4	-1	?	0.8	12	0.5	12	-0.1	12	/
> COCCn1c(N2CCCC2)nc2c1c(=O)[nH]c(=O)n2C
  16	14	-2	2.7	-3	0.7	-7	3.4	11	-5
> COc1ccccc1N1CCN(C2CCN(C(=O)COc3cccc(C)c3)CC2)CC1
  /	21	-17	3.1	0	0.8	1	/	/	6
> CCn1c(CNC(=O)COc2ccc(C(C)C)cc2)nnc1SCC(=O)Nc1ccc(F)cc1
  /	3	10	-24	11	0.2	-19	/	/	-8
> COc1cccc(CC(=O)Nc2cc(S(=O)(=O)N3CCOCC3)ccc2N2CCN(C)CC2)c1
  6	/	/	5.2	/	-0.1	1	-0.1	3	6

Next section:
Sequence of screens: Ecoli rRNA inh	ALR H2O2 inh	Calb FLC	LANA-H2B inh	T cruzi repl	Bfl-1 A1 inh	Beta2AR agonist	Ecoli rRNA inh RFP	Ecoli rRNA inh OD600	Beta cell apopt
> CCOC(=O)C1=NNC(C(=O)c2ccccc2)C1c1ccc(OC)cc1 (centres undefined)
  /	5	-1	-1.2	10	-0.3	2	/	/	5
> CCCc1nc(SCC(=O)N2CCc3ccccc3C2)c2ccccc2n1
  -27*	-18	41	-16	31	0.4	-18	3.3*	-14*	-8
> CCOCCOC(=O)COc1ccc2c(=O)c(Oc3ccc(OC)cc3)coc2c1
  24	-17	-4	-1.1	-8	0.5	3	0.5	28	-4
> Cc1ccc(NC(=O)NC(=O)c2cnccc2C(F)(F)F)c(C)c1
  10	-3	1	0.8	19	0.6	2	1.1	-13	-5
> CN(CC12CC3CC(CC(C3)C1)C2)C(=O)c1ccco1
  -22	1	-4	-1.3	17	-0.6	-16	-3.3	-32	-9
> COCCN(CCOC)S(=O)(=O)c1ccc(C(=O)Nc2nc3c(s2)CCc2ccccc2-3)cc1
  -24	0	8	/	31	0.2	-1	-5.4	-39	9
> CCCn1c(-c2ccc[nH]c2=O)nc2ccccc21
  16	-1	-2	9.2	3	-0.3	5	0.0	7	-3
> CCOc1ccc(OCC)c(S(=O)(=O)N2CCOCC2)c1
  2	0	-2	1.9	0	0.6	8	-0.9	3	-1
